Source: PubChem
PrP UTR inh: inhibition of PrP 5' UTR reporter expression | cell-based PrP 5' UTR mRNA reporter, plate reader | 340,000 tested, 0.35% active | inhibition, % (concentration not given with the values) | AID 488862;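 active = every replicate at 50% or more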;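 also: 0 = median of the neutral control wells; tested in H4 reporter cells; numbers are from one replicate; inactives centre near -14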
Autofluor counter: flagged as autofluorescent in microsphere protease counterscreen; compound autofluorescence counterscreen, microsphere flow cytometry; hits give high values; fluorescence intensity (test concentration not listed); 360,000 tested, 3.1% active; AID 624483;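 active = at least 3 SD above the mean of all compounds, about 16000 in these data; inconclusive = too few beads counted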;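 also: 100 nL of 1 mM stock went into each well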
ugtP null kill: kills S. aureus RN4220 lacking UgtP; 330,000 tested, 0.54% active; growth inhibition, % (no concentration beside the values); S. aureus RN4220 ugtP deletion, OD600 growth, 16 h; some inactives read as strong as hits; AID 1259309;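 active = z-score under -3 and OD600 up to 0.15 on both plates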;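 also: plate controls were untreated wells for no effect and antibiotic for full effect; wells of about 80 µL received 100 nL stock; the first replicate is given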
Sa RN4220 lethal: kills Staphylococcus aureus RN4220 | S. aureus RN4220 growth, OD600, 16 h | inhibition, % (concentration not given with the values) | 330,000 tested, 0.33% active;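 active = z-score of -3 or lower and OD600 up to 0.18 on both plates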;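 also: plate controls were untreated cells for no effect and reference antibiotic for full effect; stock transfer was 100 nL into about 80 µL; one replicate is shown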
BJeLR viability: BJeLR cell viability loss. 300,000 tested, 0.17% active. BJeLR (HRASV12) viability, CellTiter-Glo ATP luminescence, 48 h; reference of the scale not given here. inhibition, % (concentration not given with the values);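 active = replicate mean above 50%; inconclusive = above 50% but judged a plate artefact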;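 also: 50 nL library stock added to about 25 µL; numbers are from one replicate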
Mtb hypoxia inh: Mtb hypoxia fluorescent reporter inhibition; M. tuberculosis hypoxia-regulated fluorescent reporter, fluorescence; fluorescence inhibition, % (test concentration not listed); 300,000 tested, 0.1% active;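 active = 35 to 45% if threefold the growth effect, above 45% if 1.5-fold the growth effect; inactive = the rest, general growth blockers included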;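 also: wells of about 50 µL received 100 nL stock; 0% = vehicle wells and 100% = reference inhibitor wells; whole bacteria with a GFP reporter of the hypoxia response; strong numbers were not always called active; many hits fall short of the cut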
Mtb hypoxia inh growth: second read-out of Mtb hypoxia inh, no call of its own (marks repeat the call); growth inhibition, %; measured here: M. tuberculosis growth (absorbance);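 0% = vehicle and 100% = reference antibiotic; read after six days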
Numbers without * were called inactive; ? = inconclusive; · = no result given.

1	COc1cccc(C(=O)C2CN(C)CC2c2ccc(Cl)cc2)c1 (centres undefined)
2	Cc1nn(-c2ncc(C(F)(F)F)cc2Cl)c(=O)n1-c1ccccc1F
3	CC(=O)Nc1nc(C)cs1
4	CCOC(=O)C1CCCN(C(=O)c2ccc3oc(Cc4ccccc4)nc3c2)C1 (centres undefined)
5	COc1ccc(O)c(/C=N/c2sc(C)c(C)c2C#N)c1
6	O=C(Nc1cc(S(=O)(=O)N2CCOCC2)ccc1N1CCOCC1)c1cccs1
7	O=[N+]([O-])c1ccc(OCc2n[nH]c(=S)n2-c2ccccc2)cc1
8	CCN(CC)S(=O)(=O)c1ccc2c(c1)N(CC(=O)N(CCc1ccncc1)C(C)C)C(=O)CO2
Compound | 1 | 2 | 3 | 4 | 5 | 6 | 7 | 8
PrP UTR inh | -22 | -15 | -8 | -52 | -32 | -12 | -19 | -17
Autofluor counter | 5452 | 5321 | 3263 | 5674 | 9758 | 6207 | 4488 | 4797
ugtP null kill | 9 | 4 | 1 | 3 | · | 2 | 13 | 5
Sa RN4220 lethal | -2.5 | 8.9 | 4.6 | 0.5 | · | 5.8 | -1.3 | 5.9
BJeLR viability | 9 | 4 | 3 | 6 | -1 | · | 8 | 3
Mtb hypoxia inh | 11 | 5 | 4 | 2 | · | 8 | 7 | -7
Mtb hypoxia inh growth | 8 | 14 | 9 | 5 | · | -2 | -1 | -1

9	O=C(CN1CCN(c2ccccc2F)CC1)Nc1ccc2c(c1)CCC2
10	CN(C)c1ccc(C(CNS(=O)(=O)c2cccc([N+](=O)[O-])c2)N2CCOCC2)cc1 (centres undefined)
11	CC[n+]1c(/C=C/c2ccc(N(C)C)cc2)ccc2ccccc21
12	COc1ccc(C(=O)C2CCCN(Cc3cnc(C)s3)C2)c(OC)c1 (centres undefined)
13	C=C1CCN(C(CC(C)C)C(=O)NCCC(C)C)S(=O)(=O)c2ccccc21 (centres undefined)
14	O=C(CSc1nnc(C2CC2)n1-c1ccccc1)NC1CCS(=O)(=O)C1 (centres undefined)
15	Cc1nn(C)c(C(=O)NNC(=S)NCc2ccco2)c1Br
16	O=C(CSc1nnc(Nc2ccccc2)s1)NCC1CCCO1 (centres undefined)
Compound | 9 | 10 | 11 | 12 | 13 | 14 | 15 | 16
PrP UTR inh | -8 | -11 | -20 | 13 | · | -7 | 2 | -10
Autofluor counter | 2203 | ? | 2511 | 3714 | · | 2892 | 3300 | ·
ugtP null kill | 4 | 5 | 96* | 10 | -2 | 6 | 2 | 7
Sa RN4220 lethal | 5.5 | 8.2 | 98* | 8.7 | 5.1 | 5.4 | 5.0 | 6.3
BJeLR viability | -2 | 2 | 35 | 11 | · | · | -3 | ·
Mtb hypoxia inh | 15 | 4 | 11 | -5 | -3 | 16 | 17 | -5
Mtb hypoxia inh growth | 6 | -1 | -2 | 3 | 6 | 26 | 2 | 6

17	O=C(CC12CC3CC(CC(C3)C1)C2)N/N=C\c1ccc[nH]1
18	COc1ccc(-c2ccc(-c3noc(-c4ccccc4F)n3)c(OC)n2)cc1
19	O=C(NNC(=O)c1cc(Br)c(Br)s1)c1csc(N2CCOCC2)n1
20	COc1ccccc1NC(=O)c1ccc(NC(=O)CN2CCCC2)cc1
21	O=C(/C=C/Nc1ccc(F)cc1F)c1ccc(Br)cc1
22	COc1ccc(N2C(=O)CSC2c2ccc3c(c2)OCO3)cc1 (centres undefined)
23	Clc1ccc(C(c2nnnn2C2CCCC2)N2CCN(c3nc4ccccc4s3)CC2)cc1 (centres undefined)
24	O=C(CCNS(=O)(=O)c1cccc2nsnc12)NC1CCCc2ccccc21 (centres undefined)
Compound | 17 | 18 | 19 | 20 | 21 | 22 | 23 | 24
PrP UTR inh | -20 | -25 | -12 | -31 | · | -5 | -11 | -10
Autofluor counter | 2748 | 7943 | 13914 | 4909 | 3994 | 16403* | 4854 | 6501
ugtP null kill | · | -14 | -4 | 2 | 2 | 3 | -3 | 7
Sa RN4220 lethal | · | 8.1 | -3.4 | 15 | 2.3 | 0.4 | -5.0 | 2.1
BJeLR viability | 4 | 6 | -3 | 7 | -9 | 5 | -6 | 3
Mtb hypoxia inh | · | 11 | -13 | 11 | -13 | 4 | · | 2
Mtb hypoxia inh growth | · | 7 | -6 | 15 | 1 | 1 | · | -1

25	NS(=O)(=O)c1cccc(NC(=O)CSc2ncnc3ccccc23)c1
26	COc1cccc(C(O)c2nccn2Cc2ccccc2)c1OC (centres undefined)
27	CC1(C)CSC(=NCCc2ccccc2)N1
28	O=C(Nc1cccc(NC(=O)c2sc3ccccc3c2Cl)c1)c1ccco1
29	CCOC(=O)C1CCN(Cc2nnnn2CCc2ccccc2)CC1
30	CCC1C(=O)NCCN1C(=O)c1cc(COc2cc(C)ccc2C)on1 (centres undefined)
31	COc1ccc(C(=O)Nc2ccccc2N2CCOCC2)cc1S(=O)(=O)N1CCCC1
32	CCOc1ccccc1NC(=S)N1CCN(c2nc(-c3cccc(OC)c3)cs2)CC1
Compound | 25 | 26 | 27 | 28 | 29 | 30 | 31 | 32
PrP UTR inh | -10 | -17 | -22 | -42 | -28 | -22 | -22 | -20
Autofluor counter | 3600 | 3882 | 6377 | 2046 | 2277 | 5094 | 3426 | 3150
ugtP null kill | 9 | 3 | 3 | 0 | 1 | -4 | 6 | 1
Sa RN4220 lethal | 1.0 | 2.3 | 4.2 | 32 | 4.1 | 2.4 | 1.2 | 3.8
BJeLR viability | -2 | -3 | 5 | -12 | -7 | -1 | · | -11
Mtb hypoxia inh | -6 | 15 | 8 | 6 | 6 | 7 | -7 | 23
Mtb hypoxia inh growth | -8 | -2 | -5 | 19 | -4 | -2 | 3 | -5

Part of the list above in order of formula weight, lowest first.
27	CC1(C)CSC(=NCCc2ccccc2)N1
29	CCOC(=O)C1CCN(Cc2nnnn2CCc2ccccc2)CC1
25	NS(=O)(=O)c1cccc(NC(=O)CSc2ncnc3ccccc23)c1
32	CCOc1ccccc1NC(=S)N1CCN(c2nc(-c3cccc(OC)c3)cs2)CC1
Compound | 27 | 29 | 25 | 32
PrP UTR inh | -22 | -28 | -10 | -20
Autofluor counter | 6377 | 2277 | 3600 | 3150
ugtP null kill | 3 | 1 | 9 | 1
Sa RN4220 lethal | 4.2 | 4.1 | 1.0 | 3.8
BJeLR viability | 5 | -7 | -2 | -11
Mtb hypoxia inh | 8 | 6 | -6 | 23
Mtb hypoxia inh growth | -5 | -4 | -8 | -5

Additional records:
33	O=C(CSc1ccc(Br)cc1)NCC1(N2CCCCC2)CCCCC1
34	Cc1nn(CCC(N)=O)c2nc(-c3cccs3)cc(C(F)(F)F)c12
35	Cn1cc(/C=C/C(=O)N2CCCC(C(=O)c3cccc4ccccc34)C2)cn1 (centres undefined)
36	Cc1ccc(O)c(C(=O)CC(=O)c2ccc(Cl)cc2)c1
37	CCOC(=O)c1cc(C(O)(C(=O)OC)C(F)(F)F)c(/N=C/N(C)C)o1 (centres undefined)
38	CC(C)(C)n1nnnc1C(c1ccc(F)cc1)N1CCC(C(N)=O)CC1 (centres undefined)
39	CC(C)(C)c1cc(C(=O)N2CCN(c3ncccn3)CC2)ccn1
40	Cc1cccc(NC(=S)NC(=O)/C=C/c2ccccc2)n1
Compound | 33 | 34 | 35 | 36 | 37 | 38 | 39 | 40
PrP UTR inh | -11 | -19 | -6 | -54 | 3 | -12 | -19 | -36
Autofluor counter | · | 2510 | 4624 | 3098 | 3395 | 3875 | 4315 | 4075
ugtP null kill | 8 | -1 | 1 | 101* | · | 6 | -1 | ·
Sa RN4220 lethal | 2.4 | 5.2 | 5.8 | 100* | · | 2.0 | 0.7 | ·
BJeLR viability | · | -5 | -1 | -2 | -2 | 4 | -3 | 5
Mtb hypoxia inh | 1 | 4 | -7 | -6 | · | 0 | 11 | ·
Mtb hypoxia inh growth | 7 | 8 | 14 | 4 | · | -5 | 6 | ·

Some of the entries above in a different format:
entry	Molecule	PrP UTR inh	Autofluor counter	ugtP null kill	Sa RN4220 lethal	BJeLR viability	Mtb hypoxia inh	Mtb hypoxia inh growth
40	Cc1cccc(NC(=S)NC(=O)/C=C/c2ccccc2)n1	-36	4075	·	·	5	·	·
37	CCOC(=O)c1cc(C(O)(C(=O)OC)C(F)(F)F)c(/N=C/N(C)C)o1 (centres undefined)	3	3395	·	·	-2	·	·

Following part:
41	Cc1cc(CNC(=O)COc2ccc(F)cc2)c2ccccc2n1
42	Cn1c(-c2ccco2)nc2cc3ccccc3cc21
43	CCOC(=O)C1=NNC(C(=O)c2ccc(C)cc2)C1c1ccc(C)cc1 (centres undefined)
44	CC=C(C)C(=O)Nc1cccc(C2=NOC3(C2)CC(C(N)=O)N(C(=O)CC(c2ccccc2)c2ccccc2)C3)c1 (centres undefined)
45	Cc1ccc(NC(=O)Cn2nc(C)cc2C)cc1
46	Cc1cccc(C)c1NC(=O)CN1C(=O)N(C)Cc2ccccc21
47	CC1Cc2ccccc2N1C(=O)CNc1cccc(S(=O)(=O)N2CCCC2)c1 (centres undefined)
48	COC(=O)C(CCSC)NC(=O)CNS(=O)(=O)c1ccc(F)cc1 (centres undefined)
Compound | 41 | 42 | 43 | 44 | 45 | 46 | 47 | 48
PrP UTR inh | -15 | -46 | -26 | · | -19 | 0 | -7 | -10
Autofluor counter | 2008 | 3120 | 2038 | · | 6879 | 2398 | 2255 | 4218
ugtP null kill | 9 | -8 | 8 | 4 | 2 | 9 | 5 | -5
Sa RN4220 lethal | -0.7 | 6.5 | 8.5 | 7.4 | 3.6 | 4.9 | 3.5 | 4.0
BJeLR viability | 7 | 33 | 7 | · | -8 | -4 | -3 | -11
Mtb hypoxia inh | 7 | 17 | 9 | 1 | 7 | -12 | 16 | -2
Mtb hypoxia inh growth | 5 | 7 | 6 | 4 | 8 | -8 | 3 | -1

49	O=C(Cc1ccccc1)Nc1ccc2c(c1)CCC2
50	CCC(C)[C@H](NC(=O)N1CC(=O)Nc2ccccc21)C(=O)N[C@@H](C(=O)O)c1ccccc1 (some centres undefined)
51	O=C(Cn1cc(C(F)(F)F)ccc1=O)N/N=C/c1ccc(O)cc1
52	O=C(Cc1nc(-c2cnccn2)no1)NNC(=O)Nc1ccccc1
53	O=C(NN=Cc1c(Cl)[nH]c2ccccc12)c1ccc2c(c1)OCCO2
54	COC(=O)C(=C/C=C/c1cccnc1)C(=O)OC
55	CCOC(=O)C1=C(COC(=O)CCOc2ccc(OCC)cc2)NC(=O)NC1C (centres undefined)
56	NC(=O)C1CCN(C(=O)CNC(=O)c2ccccc2)CC1
Compound | 49 | 50 | 51 | 52 | 53 | 54 | 55 | 56
PrP UTR inh | -23 | -17 | -2 | -13 | · | -16 | 3 | -16
Autofluor counter | 3147 | 5504 | 4550 | 4072 | · | 3541 | 3877 | 3185
ugtP null kill | 5 | 0 | · | 1 | -6 | 9 | 7 | 1
Sa RN4220 lethal | -1.0 | 0.3 | · | 3.6 | 0.9 | 1.7 | 3.6 | -0.5
BJeLR viability | -4 | -3 | 7 | 12 | · | 3 | · | -1
Mtb hypoxia inh | 9 | 11 | · | -10 | 8 | 9 | -8 | -3
Mtb hypoxia inh growth | 15 | 3 | · | -3 | 2 | 18 | -6 | 4

57	Cc1ccc2c(c1)C(O)(CC(=O)c1ccc3c(c1)OCO3)C(=O)N2 (centres undefined)
58	CSCCC(NC(=O)c1ccc(Cl)c([N+](=O)[O-])c1)C(=O)N1CCN(C/C=C/c2ccccc2)CC1 (centres undefined)
59	Cc1ccc(C(=O)NC(=S)NNS(=O)(=O)c2ccc(C)cc2)cc1
60	Cc1ccc(NC(=O)Nc2nnc(Cc3ccc([N+](=O)[O-])cc3)s2)cc1
61	CNC(=O)/C(C#N)=C/c1ccc(-c2ccccc2[N+](=O)[O-])o1
62	COC(=O)c1cc(-c2ccc(Br)cc2)n[nH]1
63	CC(=O)NS(=O)(=O)c1ccc(NC(=S)NC(=O)Cc2ccccc2)cc1
64	COc1ccccc1C(=O)N1CC(=O)Nc2ccc(F)cc2C1c1ccccc1 (centres undefined)
Compound | 57 | 58 | 59 | 60 | 61 | 62 | 63 | 64
PrP UTR inh | -33 | -4 | -39 | -35 | -28 | -24 | -19 | -3
Autofluor counter | 3376 | ? | 8528 | 1924 | 2140 | 2969 | 4283 | 3068
ugtP null kill | 7 | 2 | -3 | -9 | 3 | -9 | 13 | -3
Sa RN4220 lethal | -3.3 | -1.9 | 2.3 | -0.8 | 8.3 | -6.7 | 10.0 | 0.0
BJeLR viability | -3 | -7 | 1 | -17 | 4 | 7 | 4 | 2
Mtb hypoxia inh | 4 | 8 | -1 | 4 | 12 | 9 | 6 | -2
Mtb hypoxia inh growth | -3 | 0 | 10 | 1 | 0 | 8 | 13 | -7
